GALR2 ag – GALR2 receptor agonists, primary screen, cell-based | Galanin receptor type 2 (Homo sapiens), O43603 | GALR2-expressing cells, agonist activation read-out | activation, %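 (tested at 5 µM)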 | actives 0.48% (n = 140,000) | AID 803, 2007;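 active means above mean plus 3 SD of all compounds, about 5% in these data, not always enough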;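 further: 0% = vehicle buffer wells and 100% = reference agonist at full effect; tested in CHO reporter cells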
Target sequence (O43603 whole entry, looked up): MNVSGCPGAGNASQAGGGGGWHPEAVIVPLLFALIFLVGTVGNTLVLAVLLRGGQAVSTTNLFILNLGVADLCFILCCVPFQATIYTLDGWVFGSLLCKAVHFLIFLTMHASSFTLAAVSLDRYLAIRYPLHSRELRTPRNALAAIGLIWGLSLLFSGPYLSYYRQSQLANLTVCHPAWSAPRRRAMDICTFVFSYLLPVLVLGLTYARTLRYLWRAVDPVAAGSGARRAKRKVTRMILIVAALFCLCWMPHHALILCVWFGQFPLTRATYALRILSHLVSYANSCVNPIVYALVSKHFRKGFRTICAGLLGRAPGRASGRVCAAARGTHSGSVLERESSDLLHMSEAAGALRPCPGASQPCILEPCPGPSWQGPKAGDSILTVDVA
RGS16-Gao HTS – modulators of RGS16 binding to Galphao, primary screen, biochemical, human proteins, multiplexed bead flow cytometry. bead-based flow cytometry RGS16-Galphao binding, fluorescence; actives lie on both sides. actives 0.38% (n = 220,000). binding response (% of control), % at 10 µM. AID 1441, 2008. Regulator of G-protein signaling 16 (Homo sapiens) + Guanine nucleotide-binding protein …;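 active means below 25% or above 175%, edge rows of some plates excepted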;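 further: Galphao activated by GDP with aluminum fluoride before binding; 100% = wells without compound and 0% = beads without RGS; some results beyond the cut were filed as inactive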
Target sequence (O15492 whole entry, looked up): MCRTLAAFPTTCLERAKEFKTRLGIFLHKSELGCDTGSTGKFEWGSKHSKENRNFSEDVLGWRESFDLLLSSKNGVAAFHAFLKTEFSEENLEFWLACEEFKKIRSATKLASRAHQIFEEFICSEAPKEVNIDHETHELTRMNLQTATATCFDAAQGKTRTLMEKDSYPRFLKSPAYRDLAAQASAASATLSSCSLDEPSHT
Target sequence (P09471 whole entry, looked up): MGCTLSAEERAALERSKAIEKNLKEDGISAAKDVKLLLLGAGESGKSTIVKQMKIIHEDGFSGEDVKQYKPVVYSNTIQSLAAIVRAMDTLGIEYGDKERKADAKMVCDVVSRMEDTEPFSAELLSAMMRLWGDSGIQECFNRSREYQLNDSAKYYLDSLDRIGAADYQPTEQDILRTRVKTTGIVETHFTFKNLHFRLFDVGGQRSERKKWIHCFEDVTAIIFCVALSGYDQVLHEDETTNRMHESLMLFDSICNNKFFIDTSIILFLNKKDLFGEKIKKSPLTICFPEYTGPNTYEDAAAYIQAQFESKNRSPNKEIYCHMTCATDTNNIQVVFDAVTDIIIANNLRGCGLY
PKD1 inh – inhibitors of human PKD1 kinase, biochemical, fluorescence polarization; PKD1 kinase fluorescence polarization assay; inhibition, %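 (about 10 µM by stock and volumes)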; actives 0.056% (n = 200,000); AID 797, 2007;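 active means inhibition of 50% or more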;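 further: controls were vehicle for no effect and a reference inhibitor for full effect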
INS promoter inh – inhibitors of insulin promoter-driven GFP, primary screen, imaging, TRM-6 cells (human fetal islet line), eGFP reporter, cell count; reporter expression induced with tamoxifen; inhibition, % at 2 µM; actives 0.9% (n = 130,000); AID 1273, 2008;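 active means inhibition above the mean plus 3 SD, with well images judged a real hit on visual review, cut at about 60% in these data, passing the limit was not always enough; inconclusive means inhibition over the cutoff but images rejected on review; inactive means inhibition not above the cutoff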
HSV replic up – enhancers of HSV replication in host cells, fold increase, host cell viability | maximum fold increase | AID 1956, 2009 | HSV replication augmentation in cells | actives 0.005% (n = 220,000);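 active means peak rise of 1.5-fold or more in the series; inconclusive means self-fluorescent or not available for retest; tested in PC3 cells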;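 further: first round at 10 µM; read as green reporter fluorescence; hits show the peak of a series up to 25 µM; 1 = signal of infected wells without compound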
INS promoter inh cell count – second read-out of INS promoter inh, no call of its own (marks repeat the call); normalized cell count, %; measured here: cell count, toxicity; reference of the scale not given here;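 cells exposed to compound for 48 h; stained nuclei by imaging scaled within each plate; lower means fewer cells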
HSV replic up primary fold – also measured in HSV replic up; calls as there; fold increase; compound at 10 µM; measured here: primary screen fold increase 10 uM; tested in PC3 cells;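 GFP signal in the first replicate; 1 = infected wells without compound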
An asterisk follows results filed as active; i = inactive; ? = inconclusive; nt = no result given. An unsorted share of the library, and some 1.3% of all compounds hit somewhere here.

SMILES | GALR2 ag | RGS16-Gao HTS | PKD1 inh | INS promoter inh | INS promoter inh cell count | HSV replic up | HSV replic up primary fold
CNC(=O)NC(=O)Cn1nc2n(c1=O)-c1ccccc1SC2 | nt | 103 | nt | nt | nt | i | 0.93
CSCCC(NC(=O)c1ccco1)C(=O)OCC(=O)Nc1ncc(Cl)c(C)c1Cl (stereo not drawn) | -0.3 | 102 | -12 | -26 | 157 | i | 0.9
O=C(NC1CCCCC1)c1nn2c(C(F)(F)F)cc(-c3ccco3)nc2c1Br | -1.8 | 101 | -3 | nt | nt | i | 0.94
O=C(Nc1ccc2c(c1)OCO2)C1CCN(C(=O)c2ccc([N+](=O)[O-])cc2)CC1 | nt | 99 | -4 | 21 | 130 | i | 0.95
COCCCNC(=O)CNC(=S)N(Cc1ccccc1F)C1CCCCC1 | -2.3 | 101 | -11 | 56 | 105 | i | 1.1
CC(C)=NOc1nc(N2CCOCC2)nc(N2CCOCC2)n1 | nt | 97 | nt | nt | nt | i | 0.95
Cc1nc2ccccc2c(=O)n1NCc1cccs1 | -1.2 | 103 | -3 | nt | nt | i | 1.1
COc1ccc(Br)cc1C1CC(=O)N2CN(C)CSC2=C1C#N (stereo not drawn) | -0.9 | 84 | -7 | nt | nt | i | 0.95
Cc1scc(C(=O)NNC(=S)NCc2ccccc2)c1C | 4.2 | 109 | -8 | 28 | 123 | i | 0.96
Cc1ccc(S(=O)(=O)NC(C)(C)CN2CCc3ccccc3C2)cc1 | nt | 106 | nt | nt | nt | i | 1.1
Cc1ccc(OCC(=O)NNC(=O)C(=O)NC(C)(C)C)cc1 | 0.4 | 80 | -3 | nt | nt | i | 1.1
Fc1ccccc1CSc1ccc(-c2ccco2)nn1 | nt | 102 | 5 | -20 | 120 | i | 0.98
COc1ccc2c(c1OC)C[N+]1([O-])CCc3cc4c(cc3C1C2)OCO4 (stereo not drawn) | nt | 103 | nt | nt | nt | i | 0.89
CC(=O)C1=C(O)C(=O)N(c2cccc(C(=O)O)c2)C1c1ccc(F)cc1 (stereo not drawn) | -1.4 | 98 | -8 | nt | nt | i | 1.1
c1ccc(C2=Nc3ccccc3NC(c3ccccc3)C2)cc1 (stereo not drawn) | -0.8 | 98 | -4 | nt | nt | i | 1.1
COc1ccccc1-c1noc(CSc2nc(N)cc(=O)[nH]2)n1 | nt | 116 | -1 | 29 | 100 | i | 0.96
Cc1ccc(C(C)(C)C)c(OCCN2CCCC2)c1 | -1.6 | 107 | 1 | -23 | 129 | nt | nt
Cc1nc2sc(C(c3ccccc3)N3CCN(CCO)CC3)c(O)n2n1 (stereo not drawn) | nt | 110 | nt | nt | nt | i | 0.82
CCc1nc2oc(C(=O)c3ccccc3)c(N)c2c2c1COC(C)(C)C2 | -0.1 | 93 | 3 | 30 | 102 | i | 0.96
Cc1ccc(N(C(C)C(=O)Nc2cc(Cl)ccc2Oc2ccccc2)S(C)(=O)=O)cc1 (stereo not drawn) | -1.8 | 98 | -2 | nt | nt | i | 0.76
COc1ccc(Cl)cc1NC(=O)N1CCN(C2CCCCC2)CC1 | -1.8 | 104 | 5 | 10 | 149 | i | 0.93
O=C(NCCCCc1ccccc1)C1CC(c2ccccc2[N+](=O)[O-])=NO1 (stereo not drawn) | -1.4 | 103 | -1 | -17 | 127 | i | 0.78
O=C(CCC(=O)N1CCOCC1)c1ccc(F)cc1 | nt | 99 | 0 | nt | nt | i | 0.9
COc1ccc(CNC(=O)CN(c2ccccc2)S(=O)(=O)N(C)C)cc1 | nt | 102 | -7 | nt | nt | i | 0.97
COc1ccccc1NC(=O)CN1CCC(C(=O)c2ccc(F)cc2)CC1 | -2.1 | 95 | -10 | 13 | 60 | i | 1.1
Cc1cc(C(=O)COC(=O)CN(C)S(=O)(=O)c2ccc(Cl)cc2)c(C)n1Cc1cccs1 | 0.7 | 103 | -7 | nt | nt | i | 1.1
COc1ccc(OCCCN2CCCCCC2)cc1 | -0.6 | 109 | 0 | 1 | 78 | i | 1.1
O=C(Nn1c(SCc2cccc([N+](=O)[O-])c2)nc2ccccc2c1=O)c1ccccc1 | -0.3 | 118 | -6 | -100 | 49 | i | 0.96
Cc1ccc(C(=O)N(Cc2nc3ccccc3c(=O)[nH]2)C2CCCC2)cc1 | nt | 67 | -4 | 0 | 86 | i | 1.1
O=C1N(c2ccc(Cl)cc2)C(c2ccc(Cl)cc2)N2CCCN12 (stereo not drawn) | -0.6 | 101 | -3 | -26 | 101 | i | 0.9
CC(C)Cc1nnc(NC(=O)CN2C(=O)c3ccccc3C2=O)s1 | nt | 100 | 1 | nt | nt | i | 0.95
O=C(c1ccc(N2CCCC2=O)cc1)N1CCOCC1 | -1.5 | 103 | -4 | -38 | 75 | i | 1.1
CCc1ccc(C(=O)NN(C(=O)c2ccc(CC)cc2)C(C)(C)C)cc1 | 0.0 | 102 | -8 | -33 | 89 | i | 1.1
CCN1CCN(Cc2ccc(NC(=O)c3ccc(C)c(NC(=O)c4ccno4)c3)cc2C(F)(F)F)CC1 | nt | 101 | nt | nt | nt | i | 0.98
C(=C\c1nnc(-c2cccs2)o1)/c1ccccc1 | -3.8 | 101 | 2 | nt | nt | i | 0.68
O=c1ccn(Cc2ccccc2Cl)cc1 | -0.2 | 104 | -7 | -13 | 89 | i | 0.98

2 compounds from above, limited to HSV replic up and HSV replic up primary fold.
SMILES,HSV replic up,HSV replic up primary fold
CCN1CCN(Cc2ccc(NC(=O)c3ccc(C)c(NC(=O)c4ccno4)c3)cc2C(F)(F)F)CC1,i,0.98
C(=C\c1nnc(-c2cccs2)o1)/c1ccccc1,i,0.68

New compounds follow
SMILES | GALR2 ag | RGS16-Gao HTS | PKD1 inh | INS promoter inh | INS promoter inh cell count | HSV replic up | HSV replic up primary fold
COc1ccccc1CNC(=O)C(=O)NCC1OCCN1S(=O)(=O)c1ccc2c(c1)OCCO2 (stereo not drawn) | -1.2 | 99 | -4 | -12 | 105 | i | 0.93
CN(CC(=O)NCc1ccccn1)S(=O)(=O)c1ccccc1 | -1.2 | 116 | -4 | -11 | 97 | i | 0.87
CC(C)(C)n1nnnc1C(c1cccc(C#N)c1)N1CCCCCC1 (stereo not drawn) | 0.1 | 121 | -10 | 36 | 92 | i | 1
COCCN(C(=O)CSc1nnc(-c2cccc(C)c2)n1C)c1c(N)n(Cc2ccccc2)c(=O)[nH]c1=O | nt | 101 | -4 | nt | nt | i | 0.95
CC[C@H](C)C(C(=O)N1CCN(C(=O)OC(C)(C)C)CC1)n1cc(C(CO)NC(=O)OC(C)(C)C)nn1 (stereo partly drawn) | nt | 90 | -7 | nt | nt | i | 0.88
Cc1ccc(-c2ccccc2)n1-c1cccc(C(=O)O)c1 | nt | 91 | nt | nt | nt | i | 1
CC(C)NC(=O)c1ccc(Sc2ccccc2)c([N+](=O)[O-])c1 | 0.3 | 84 | -7 | 16 | 122 | i | 0.83
COc1ccc(OC)c(C(c2nnnn2CC2CCCO2)N2CCN(C)CC2)c1 (stereo not drawn) | -0.8 | 102 | 3 | nt | nt | i | 0.76
O=c1cc(CO)oc(CN2CCN(CCO)CC2)c1O | -3.0 | 157 | -4 | nt | nt | i | 0.92
CC(C)CNC(=O)CC(=O)N/N=C/c1cccs1 | -1.7 | 92 | -1 | -93 | 139 | i | 0.93
Cn1cc(CN2CCCC(CO)(Cc3ccccc3)C2)c2ccccc21 (stereo not drawn) | nt | 100 | -7 | nt | nt | i | 0.71
Cc1cccn2c(CNC3CCCc4ccccc43)c(C(=O)N3CCCCC3)nc12 (stereo not drawn) | nt | 91 | -3 | nt | nt | i | 0.97

Given as labelled records: part of the list above.
Cc1ccc(-c2ccccc2)n1-c1cccc(C(=O)O)c1
  GALR2 ag: nt; RGS16-Gao HTS: 91; PKD1 inh: nt; INS promoter inh: nt; INS promoter inh cell count: nt; HSV replic up: i; HSV replic up primary fold: 1
CC(C)NC(=O)c1ccc(Sc2ccccc2)c([N+](=O)[O-])c1
  GALR2 ag: 0.3; RGS16-Gao HTS: 84; PKD1 inh: -7; INS promoter inh: 16; INS promoter inh cell count: 122; HSV replic up: i; HSV replic up primary fold: 0.83
COc1ccc(OC)c(C(c2nnnn2CC2CCCO2)N2CCN(C)CC2)c1 (stereo not drawn)
  GALR2 ag: -0.8; RGS16-Gao HTS: 102; PKD1 inh: 3; INS promoter inh: nt; INS promoter inh cell count: nt; HSV replic up: i; HSV replic up primary fold: 0.76

More records
SMILES | GALR2 ag | RGS16-Gao HTS | PKD1 inh | INS promoter inh | INS promoter inh cell count | HSV replic up | HSV replic up primary fold
Cc1ccsc1/C=C1\Oc2cc(OCC(=O)c3ccccc3)ccc2C1=O | 0.6 | 103 | 8 | nt | nt | i | 1.4
CCCCNC(=S)Nc1ccc([N+](=O)[O-])cc1 | -0.2 | 99 | -6 | 10 | 113 | i | 1
CCc1nnc(NC(=O)CSc2nnc(CNC(=O)c3cc(OC)c(OC)c(OC)c3)o2)s1 | nt | 93 | -4 | 0 | 153 | i | 1
O=c1c2[nH]c3ccccc3c2ncn1Cc1cccnc1 | 0.0 | 102 | -10 | 22 | 89 | i | 0.82
Cc1cc(C)c(-c2c(O)c3c(n(C)c2=O)CC(C)(C)CC3=O)c(C)c1 | -0.3 | 100 | -5 | -24 | 83 | i | 0.87
CCn1c(SCC(=O)NCc2ccc3c(c2)OCO3)nnc1-c1cccs1 | -2.7 | 100 | -2 | -32 | 71 | i | 1.1
COc1ccc(S(=O)(=O)N(CCc2ccccc2)CC(=O)NC(C)C)cc1 | -1.5 | 107 | -5 | -14 | 117 | i | 0.82
S=C(Nc1ccccc1)Nc1ccc(Cl)cn1 | nt | 115 | 0 | 50 | 74 | i | 0.95
Cn1c(=O)[nH]c(=O)c2c1nc(Br)n2CCSc1nc2ccccc2o1 | 0.1 | 99 | -11 | nt | nt | i | 1.1
Cc1nc2ccc(NC(=O)NCCCO)cc2s1 | -1.6 | 100 | 2 | 25 | 182 | i | 1
COC(=O)CNc1nc(Cl)nc(N2CCC(C)CC2)n1 | nt | 106 | nt | nt | nt | i | 1
CCC(C)c1ccc(NC(=S)NCCn2cc(Br)cn2)cc1 (stereo not drawn) | nt | 108 | -3 | nt | nt | i | 0.81
Cc1nc(-c2cccnc2)sc1C(=O)Nc1ccc(F)cc1F | -1.5 | 108 | 0 | 8 | 107 | i | 0.86
COc1ccc(NC(=O)CN2CCN(Cc3ccc4c(c3)OCO4)CC2)cc1OC | -2.6 | 103 | -8 | -5 | 124 | i | 0.77
O=[N+]([O-])c1cccc(-c2nc(-c3cccs3)c(-c3cccs3)[nH]2)c1 | -1.9 | 97 | 3 | 23 | 88 | nt | nt
Cc1ccc(NC(=O)COc2ccc3oc4c(c3c2)CCCC4)nc1 | -0.9 | 99 | -3 | 30 | 92 | i | 0.91
CCN(CC)C(=O)CN(c1cc(Cl)ccc1OC)S(=O)(=O)c1ccc(C)c([N+](=O)[O-])c1 | -0.8 | 34 | 4 | -17 | 128 | i | 0.99
COc1ccc(N=Cc2c(O)c3ccccc3n2C(C)=O)cc1 | nt | 104 | nt | nt | nt | ? | nt
O=C1CC(c2ccccc2)CC(O)=C1C=Nc1ccc(Cl)cc1 (stereo not drawn) | 0.2 | 96 | -6 | -24 | 84 | i | 1
CCN(CC)c1ccc(/C=C(/C#N)c2nc3ccc(C)cc3[nH]2)c(OC(C)C)c1 | -4.3 | 99 | 0 | -245 | 118 | nt | nt

Screening results deposited in PubChem BioAssay by several laboratories.
